Source: PubChem BioAssay (ICCB-Longwood Screening Facility, Harvard Medical School)
MgrA DNA FP – alters Staphylococcus aureus MgrA binding to DNA. AID 602314. inhibition, %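 (about 10 µg/mL by stock and volumes)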. fluorescence polarization. 84,000 compounds, 0.13% hits;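 active means above 50% in either of two replicates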;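 further: 0% = protein plus DNA without compound and 100% = DNA alone without protein; higher means less MgrA bound to DNA so lower polarization; one replicate is shown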
S aureus helic – S. aureus DNA helicase inhibition; purified S. aureus helicase, fluorescence unwinding assay; about half of the hits fall short of the stated cut; inhibition, %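 (tested at about 80 µM)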; 120,000 compounds, 0.05% hits;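 active means both duplicates at 50% or more, or one of them with a favoured structure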;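 further: 0% = mean of negative control wells and 100% = mean of positive control wells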
The depositor's hits bear a star; / = not tested or not shown. The list is partial; rates above refer to the full screens.

SMILES	MgrA DNA FP	S aureus helic
O=C(O)C1CCN(c2ncnc3ccccc23)CC1	-2.5	17.0
Cn1nc(CC(=O)Nc2ccc(-c3nnc4n3CCCCC4)cc2)c2ccccc2c1=O	/	-6.0
O=C1CS/C(=C/C(=O)c2cccs2)N1	0.2	/
CC1CCCCN1S(=O)(=O)c1ccc(NC(=O)c2cnccn2)cc1 (configuration not stated)	0.5	-1.0
COc1ccc(C2OCC(CN3CCCCC3)O2)cc1 (configuration not stated)	/	32.0
c1ccc(C2COC(c3cccs3)=N2)cc1 (configuration not stated)	/	-10.0
O=C(NCc1ccc2[nH]c3c(c2c1)CCCC3)Nc1ccccc1	-0.8	7.0
CC1(C)C(=O)OC(c2ccco2)C(C)(C)C1=O (configuration not stated)	-2.0	17.0
O=C(OCn1nnc2ccccc2c1=O)c1ccccc1	/	7.0
CS(=O)(=O)CCOC(=O)c1cccc(Br)c1	/	-24.0
COc1ccc2cc3cc(C(=O)NCCCN4CCC(C)CC4)oc3nc2c1	/	4.0
CCCCC(CC)C(=O)Nc1ccc(S(=O)(=O)N2CCCCC2)cc1 (configuration not stated)	-1.6	9.0
Cc1nn2c(nc1=O)SCC(c1ccccc1)=N2	3.5	15.0
COc1ccc(CNC(=O)CCCn2c(=O)oc3ccccc32)cc1	/	10.0
Cc1ccc(N/N=C2/CCc3ccccc3C2=O)cc1	-0.6	/
CCn1nc(C)c(/C=N/NC(=O)c2cc(C3CC3)nc3ccccc23)c1C	/	37.0
CC(C)Nc1nc(-c2c(F)cccc2Cl)cs1	-4.0	/
CCC1CCCCN1S(=O)(=O)c1ccc2cc(OC)ccc2c1 (configuration not stated)	/	-18.0
CC(Sc1ncccn1)C(=O)N/N=C/c1ccccc1Cl (configuration not stated)	1.1	11.0
C=CCNC(=O)c1ccc(COc2ccccc2Cl)o1	-5.1	3.0
O=C(CSc1nnc2[nH]c(=O)ccn12)NCc1ccc(F)cc1	/	7.0
O=C(CN1CCN(C(=O)c2cccnc2Sc2ccc(Cl)cc2)CC1)N1CCCC1	/	-5.0
CCn1c(=O)cc(OCC(=O)O)c2ccccc21	/	13.0
Cn1c(=O)n(C2CCCCC2)c(=O)c2ccccc21	8.1	10.0
CCCN(CCC)C(=O)c1cccc2c1-c1ccccc1C2=O	-0.1	/
Cc1ccc(NC(=O)c2cccc3c2C(=O)N(Cc2cccnc2)C3)cc1F	/	25.0
Nc1nnc(SCC(=O)NC2CCCCC2)s1	-0.7	17.0
O=S1(=O)CCC(NC(=S)SCCOc2ccccc2OCCO)C1 (configuration not stated)	-2.6	3.0
CCOC(=O)Cn1nc(NC(=O)c2ccc(C(=O)OC)cc2)cc1C	0.1	-1.0
CN(C)C(=S)Nc1cccc2ccccc12	/	8.0
COC(=O)c1ccccc1NC(=O)c1cccs1	-0.3	-6.0
O=C(Cn1nnc2ccccc2c1=O)c1ccccc1	/	-6.0
O=C(NCc1ccc(Cl)cc1)c1ccc(CS(=O)c2cccc(Cl)c2)o1 (configuration not stated)	/	-1.0
Cc1nn(CC(=O)NCc2cccnc2)c(=O)c2ccccc12	1.0	7.0
CCCc1nn2c(=O)cc(COc3ccc(NC(=O)C(C)C)cc3)nc2s1	/	13.0
O[N+]1=CC=CCC1=S.On1ccccc1=S.[Zn]	4.8	/
CCn1c(=N)n(CCOc2ccc(C)cc2)c2ccccc21	2.4	11.0
Fc1ccc(CSc2nc(N3CCOCC3)nc(N3CCOCC3)n2)cc1	-1.8	0.0
O=C(Nc1cccc(-c2nc3ccccc3[nH]2)c1)c1ccccc1	-1.6	10.0
Cc1cc(-c2ccc(C(C)C)c(S(=O)(=O)NCCN3CCC(C)CC3)c2)on1	/	11.0
OCc1ccccc1CNc1cccc2ccccc12	-1.9	1.0
CN1Cc2cc(CN3C(=O)c4ccccc4C3=O)ccc2NC1=O	-0.7	12.0
Cc1ccc(NC(=O)c2nccnc2C(=O)O)cc1	-2.4	17.0
CCN1CCN(c2nc(C)nc3c2sc(=S)n3C)CC1	/	2.0
O=C(NCCCN1CCCC1)c1noc2c1CCCCC2	/	7.0
CSc1nnc(SC(C)C(=O)Nc2c(C)cccc2C(C)C)n1N (configuration not stated)	/	2.0
Cc1ccc(C2C=C(c3ccc(C(C)C)cc3)Nc3ncnn32)cc1 (configuration not stated)	0.0	9.0
Cn1ncc2c(O/N=C(\N)c3ccc(C(F)(F)F)cc3)ncnc21	/	-14.0
CCCCn1cnc2cc(NCc3cccc(OC)c3OC)ccc21	/	20.0
COc1ccc(-n2c(SCC(=O)/C(C#N)=C(\C)N)nc3ccccc3c2=O)cc1OC	/	-5.0
CCc1ccc(NC(=O)Cn2c(=O)n(CCC(=O)NCc3ccco3)c(=O)c3ccccc32)cc1	/	-7.0
Cc1ccc(/C=C/C(=O)O)c(Br)c1	/	1.0
CN(Cc1n[nH]c(=S)n1C)S(=O)(=O)c1ccccc1	1.3	24.0
FC(F)(F)c1cc(-c2nnc(N3CCCC3)o2)cc(C(F)(F)F)c1	-2.5	/
O=C(c1cc(-c2ccco2)on1)N1CCCCC1	/	6.0
CCOC(=O)c1ccc(-c2coc3cc(O)cc(O)c3c2=O)o1	-2.0	1.0
Cc1ccc(-n2c(C)ccc2C)cc1	0.8	-16.0
COc1cccc(CN2COc3ccc4c(oc(=O)c5ccccc54)c3C2)c1	-13.4	-1.0
CSc1cccc(NC(=O)CN(C)S(=O)(=O)c2ccccc2)c1	2.1	-3.0
N#C/C(=C1/CCCN1)c1nc2ccccc2s1	/	0.0

Part of the list above, in markdown:
| compound | MgrA DNA FP | S aureus helic |
| --- | --- | --- |
| O=C(Cn1nnc2ccccc2c1=O)c1ccccc1 | / | -6.0 |
| O=C(NCc1ccc(Cl)cc1)c1ccc(CS(=O)c2cccc(Cl)c2)o1 (configuration not stated) | / | -1.0 |
| Cc1nn(CC(=O)NCc2cccnc2)c(=O)c2ccccc12 | 1.0 | 7.0 |
| CCCc1nn2c(=O)cc(COc3ccc(NC(=O)C(C)C)cc3)nc2s1 | / | 13.0 |
| O[N+]1=CC=CCC1=S.On1ccccc1=S.[Zn] | 4.8 | / |
| CCn1c(=N)n(CCOc2ccc(C)cc2)c2ccccc21 | 2.4 | 11.0 |
| Fc1ccc(CSc2nc(N3CCOCC3)nc(N3CCOCC3)n2)cc1 | -1.8 | 0.0 |
| O=C(Nc1cccc(-c2nc3ccccc3[nH]2)c1)c1ccccc1 | -1.6 | 10.0 |
| Cc1cc(-c2ccc(C(C)C)c(S(=O)(=O)NCCN3CCC(C)CC3)c2)on1 | / | 11.0 |
| OCc1ccccc1CNc1cccc2ccccc12 | -1.9 | 1.0 |
| CN1Cc2cc(CN3C(=O)c4ccccc4C3=O)ccc2NC1=O | -0.7 | 12.0 |
| Cc1ccc(NC(=O)c2nccnc2C(=O)O)cc1 | -2.4 | 17.0 |
| CCN1CCN(c2nc(C)nc3c2sc(=S)n3C)CC1 | / | 2.0 |
| O=C(NCCCN1CCCC1)c1noc2c1CCCCC2 | / | 7.0 |
| CSc1nnc(SC(C)C(=O)Nc2c(C)cccc2C(C)C)n1N (configuration not stated) | / | 2.0 |
| Cc1ccc(C2C=C(c3ccc(C(C)C)cc3)Nc3ncnn32)cc1 (configuration not stated) | 0.0 | 9.0 |
| Cn1ncc2c(O/N=C(\N)c3ccc(C(F)(F)F)cc3)ncnc21 | / | -14.0 |
| CCCCn1cnc2cc(NCc3cccc(OC)c3OC)ccc21 | / | 20.0 |
| COc1ccc(-n2c(SCC(=O)/C(C#N)=C(\C)N)nc3ccccc3c2=O)cc1OC | / | -5.0 |
| CCc1ccc(NC(=O)Cn2c(=O)n(CCC(=O)NCc3ccco3)c(=O)c3ccccc32)cc1 | / | -7.0 |
| Cc1ccc(/C=C/C(=O)O)c(Br)c1 | / | 1.0 |
| CN(Cc1n[nH]c(=S)n1C)S(=O)(=O)c1ccccc1 | 1.3 | 24.0 |
| FC(F)(F)c1cc(-c2nnc(N3CCCC3)o2)cc(C(F)(F)F)c1 | -2.5 | / |
| O=C(c1cc(-c2ccco2)on1)N1CCCCC1 | / | 6.0 |
| CCOC(=O)c1ccc(-c2coc3cc(O)cc(O)c3c2=O)o1 | -2.0 | 1.0 |
| Cc1ccc(-n2c(C)ccc2C)cc1 | 0.8 | -16.0 |

(continued)
SMILES	MgrA DNA FP	S aureus helic
COc1ccc(C(=O)n2cnnc2N)cc1	2.6	-10.0
CCOC(=O)C1=CN(C)C=C(C(=O)OCC)C1c1ccc(C)c(Br)c1	-2.2	-1.0
CSC(=CC(=O)c1nccs1)SC	-3.0	/
COc1cc(/C=C2/SC(=Nc3ccccc3C(F)(F)F)NC2=O)ccc1O	/	-38.0
C/C(=N\OC(=O)c1ccccc1)c1cc(-c2ccccc2)no1	/	3.0
CCN(CC)c1ccc(C(=O)c2ccc(N(CC)CC)cc2)cc1	/	12.0
O=C(O)CSc1ccccc1Br	-2.2	-8.0
CCC(=O)Nc1c(-c2ccccc2)c2cc(Br)ccc2[nH]c1=O	/	-17.0
CCOC(=O)COc1ccc2c(c1)OC(C)(C)CC2=O	-1.0	/
O=C(c1ccccc1)C(Sc1nc2ccccc2[nH]1)c1ccccc1 (configuration not stated)	0.3	5.0
CCn1c2ccccc2c2cc(C3C(C#N)=C(N)Oc4n[nH]c(C(C)C)c43)ccc21 (configuration not stated)	0.0	12.0
Cc1cc(C)nc(NC(=S)c2ccc(NC(=O)/C=C/C(=O)O)cc2)n1	0.9	/
CC1CCCN(C(=O)COC(=O)c2cc(S(=O)(=O)N3CCCC3)ccc2O)C1 (configuration not stated)	/	-1.0
CC(=O)N1CCC(O)(c2ccc3c(c2)OCO3)CC1	-0.8	-3.0
Cc1ccc(CNC(=O)CCCn2c(=O)c3sccc3n(Cc3ccc(F)cc3Cl)c2=O)cc1	-0.8	6.0
CC1CCN(S(=O)(=O)c2ccc(Cl)cc2)CC1	/	-19.0
CSc1n[nH]c(-c2ccc(Cl)cc2)c1SC(=O)N(C)C	3.5	/
COc1cc(C=C2C(=O)NC(=O)NC2=O)ccc1Oc1ccc([N+](=O)[O-])cc1[N+](=O)[O-]	14.3	/
CCN(CC)C(=S)C(=O)Nc1cc(C(F)(F)F)cc(C(F)(F)F)c1	15.7	14.0
NC(CC(=O)O)c1ccc2c(c1)OCO2 (configuration not stated)	/	14.0
O=C1CNC(=O)/C1=C\c1ccc(O)cc1	-0.6	12.0
N#CCCn1c(SCc2csc(-c3ccccc3)n2)nc2ccccc21	/	-2.0
COc1ccc2cc(C#N)c(=S)[nH]c2c1	0.6	3.0
CCSc1nc2c(c(=O)[nH]c(=O)n2C)n1Cc1ccc(C)cc1	-1.2	-1.0
COc1ccc(-c2cc(=O)c3ccc(OC)cc3o2)cc1	/	-5.0
COC(=O)c1sc(-c2ccc(Cl)cc2)cc1NC(=O)C(F)(F)F	0.3	/
CCOc1ccc(S(=O)(=O)Nc2ccccc2C(=O)Nc2nn[nH]n2)cc1	/	-9.0
Cn1c2ccc(F)cc2c2nc3n(c(=O)c21)CCS3	0.5	-3.0
C/C=C/C(=O)Nc1ccccc1OC	-0.1	/
COC(=O)c1ccc2c(=O)n(NC(C)=O)c(=S)[nH]c2c1	5.1	17.0
CCOC(=O)c1c(C=O)oc2c(C)cc(OC(=O)c3ccccc3Cl)c(Br)c12	1.6	/
CC1(C)Cc2ccccc2C(N/N=C/c2ccco2)=N1	17.0	-1.0
COC(=O)c1ccccc1NC(=O)Cn1cc2c(n1)CCCC2	/	8.0
O=C(NCC1CCCO1)c1cc2c(s1)CCC2 (configuration not stated)	0.4	-7.0
Cc1cc(S(=O)(=O)NCc2ccc(S(N)(=O)=O)cc2)c(C)s1	/	3.0
CCOc1nc(NC(=O)NC(=O)c2c(F)cccc2F)nc(-c2ccccc2)n1	-0.8	10.0
COc1ccc2c(C#N)c3ccccn3c2c1	4.2	/
COc1cc(C2C(C(=O)OCCc3ccccc3)=C(C)NC3=C2C(=O)CC(C)(C)C3)cc(OC)c1OC (configuration not stated)	-1.1	/
Cc1c(C(=O)c2ccccc2)c(=O)n(C)c(=O)n1C	-3.5	2.0
CCc1ccc(-c2nc(CSCC(=O)N3CCc4ccccc4C3)c(C)o2)cc1	-0.1	14.0
Nc1cccc2c1C(=O)N(CC(=O)NC13CC4CC(CC(C4)C1)C3)C2=O	/	-3.0
COc1cc2c(cc1OC)C(C)N(C(=O)c1nn(C)c3c1CSc1ccccc1-3)CC2 (configuration not stated)	2.2	8.0
COc1ccccc1C1=NOC(C(=O)NC2CCCC2)C1 (configuration not stated)	0.6	-11.0
O=c1cc(-c2ccc(O)cc2)oc2c(C3O[C@H](CO)[C@@H](O)[C@H](O)[C@H]3O)c(O)cc(O)c12 (some centres not stated)	3.9	/
COc1ccc(Cl)cc1NC(=O)Cn1ncc2ccccc21	/	6.0
O=C1c2ccccc2C(=O)N1CN1CCC(O)(c2ccc(Cl)cc2)CC1	1.2	/
CCCn1c(SCC(=O)OC(C)(C)C)n[nH]c1=O	/	7.0

Reprinted at random: 2 entries already listed, in no set order.
SMILES	MgrA DNA FP	S aureus helic
COC(=O)c1ccccc1NC(=O)Cn1cc2c(n1)CCCC2	/	8.0
O=C(CSc1nnc2[nH]c(=O)ccn12)NCc1ccc(F)cc1	/	7.0
